USP2a block – USP2a (human) protease inhibition; USP2 core, Ub-CHOP2 coupled fluorogenic reporter, 485/531; Potency, µM (doses to about 38.3 µM), inactives show at the top dose activity change, negative = inhibition, most hits filed as inhibitors; O75604; 0.01% of 330,000 active; AID 463254;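 note: potency is the fitted concentration of half-maximal effect; plate controls were DMSO wells for no effect and full inhibition by NEM control for full effect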
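USP2 core (10nM final) preincubated 30min RT with compound in 20mM Tris-HCl pH 8.0, 2mM CaCl2, 2mM beta-mercaptoethanol, 0.05% CHAPS; 25nM Ub-CHOP2 plus 25nM reporter substrate added, fluorescence (Ex485/Em531) read after 60min.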
GALK inhibitor – galactokinase (human) inhibition. P51570. Purified GALK, Kinase-Glo residual ATP luminescence. Potency, µM (series often up to 57.5 µM), for inactives: at the top dose activity change, negative = inhibition, most hits filed as inhibitors. 0.007% of 270,000 active. AID 1868; note: potency is the fitted concentration of half-maximal effect; % is set by controls: 0 for no effect and ±100 for the full control effect
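Human GALK (5 nM) with 35 uM ATP and 100 uM galactose in 20 mM HEPES pH 8.0, 5 mM MgCl2, 60 mM NaCl, 1 mM DTT, 0.01% BSA. After 1 h at room temperature, leftover ATP was read by Kinase-Glo Plus luminescence.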
MBNL1-CUG inh – MBNL1-poly(CUG) RNA binding inhibition; Q9NR56; TR-FRET MBNL1-His/biotin-(CUG)12 binding, 665/545 ratio; Potency, µM (doses to about 57.5 µM), for inactives: at the top dose activity change, negative = inhibition, most hits filed as inhibitors; 0.036% of 280,000 active; AID 2675; active = well fitted inhibition curve with a large enough effect in the signal ratio, with a control signal flat, not every such curve was filed as active; inconclusive = small, poorly fitted or top-dose-only effect, or effect the other way, or a change in a side signal; inactive = no such curve, though single readings can be large or run the other way; the % refers to the signal ratio; note: potency is the fitted concentration of half-maximal effect; % is set by controls: 0 for no effect and ±100 for the full control effect
Target sequence (Q9NR56 whole entry, looked up): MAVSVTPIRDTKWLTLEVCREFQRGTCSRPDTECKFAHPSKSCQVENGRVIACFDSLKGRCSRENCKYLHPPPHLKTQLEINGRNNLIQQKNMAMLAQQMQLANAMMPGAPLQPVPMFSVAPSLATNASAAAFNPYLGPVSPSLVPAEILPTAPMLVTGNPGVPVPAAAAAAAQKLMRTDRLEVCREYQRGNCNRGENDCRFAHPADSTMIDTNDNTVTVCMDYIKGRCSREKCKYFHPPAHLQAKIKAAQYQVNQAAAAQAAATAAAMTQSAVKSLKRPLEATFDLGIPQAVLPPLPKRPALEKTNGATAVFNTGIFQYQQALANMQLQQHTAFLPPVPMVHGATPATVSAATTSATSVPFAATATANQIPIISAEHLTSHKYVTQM
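His-tagged MBNL1 binding to biotinylated (CUG)12 RNA was measured by TR-FRET using terbium anti-His antibody (0.055 ng/ul final) and streptavidin-XL665 (5 nM final). Compounds were titrated 92 nM to 58 uM; 60 min at room temperature.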
Eya2 phos inh – Eya2 (human) phosphatase inhibition. O00167. recombinant Eya2, OMFP fluorescence dephosphorylation (OMFP is methylfluorescein phosphate). Potency, µM (highest dose often 76.9 µM), inactives show at the highest dose activity, negative = inhibition, most hits filed as inhibitors. 0.006% of 330,000 active; note: potency is the fitted concentration of half-maximal effect; % is set by controls: 0 for no effect and ±100 for the full control effect
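Eya2 (0.2 uM) preincubated 10 min at ambient with compound, then OMFP substrate added at 50 uM; 10 min reaction in 50 mM HEPES pH 7.5, 50 mM NaCl, 5 uM MgCl2, 0.05% BSA, 1 mM DTT. Fluorescence read at Ex 485/Em 525 nm.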
KCNH2 WT inh – blocks the wildtype human KCNH2 potassium channel | AID 720551 | Q12809 | activity change, % at 1.84 µM | U2OS, BacMam KCNH2, thallium flux FluxOr; active compounds read low | 0.37% of 340,000 active;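 active = maximum activity change below -70%; inconclusive = maximum activity change between -70% and -50%; inactive = maximum activity change above -50%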; note: % is set by controls: 0 for no effect and ±100 for the full control effect
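U2OS cells transduced with wild-type KCNH2 virus are loaded with FluxOr dye for 45 min, and thallium flux is measured in kinetic reads before and after stimulation buffer. Rate constants are normalized to DMSO controls.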
Mito fusion yeast – mitochondrial division inhibition or fusion activation | AID 485298 | Potency, µM (doses to about 46.1 µM), for inactives: at the highest dose growth rescue (activation), hits mostly activators | S. cerevisiae fusion-defective mutant growth rescue, CellTiterGlo 48 h | 0.23% of 320,000 active;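 note: potency is the fitted concentration of half-maximal effect; % of control where 0% means no effect; nearly all actives have a fitted effect of over 45% in size; temperature-sensitive fusion mutants such as fzo1-1 at 37 °C on non-fermentable ethanol glycerol medium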
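Compounds are tested for their ability to restore growth of mitochondrial fusion-defective yeast strains at non-permissive 37C in YPEG medium over 48 hours. Viability is quantified by luciferase luminescence.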
Menin MLL FP TR – inhibitors of human menin-MLL interaction, mutant MLL peptide; O00255; Menin + Texas Red MLL mutant peptide, fluorescence polarization; Potency, µM (titrated, usually from 61.6 µM), inactives show at the highest dose FP activity change, negative = inhibition, actives largely listed as inhibitors; 0.23% of 270,000 active; AID 1768; active = well fitted inhibition curve with a large enough effect in the polarisation, with a control signal flat, not every such curve was filed as active; inconclusive = small, poorly fitted or top-dose-only effect, or effect the other way, or a change in a side signal; inactive = no such curve, though single readings can be large or run the other way; the % refers to the polarisation; note: potency is the fitted concentration of half-maximal effect; % of control where 0% means no effect; many of its hits are not listed in these tables
Target sequence (O00255 whole entry, looked up): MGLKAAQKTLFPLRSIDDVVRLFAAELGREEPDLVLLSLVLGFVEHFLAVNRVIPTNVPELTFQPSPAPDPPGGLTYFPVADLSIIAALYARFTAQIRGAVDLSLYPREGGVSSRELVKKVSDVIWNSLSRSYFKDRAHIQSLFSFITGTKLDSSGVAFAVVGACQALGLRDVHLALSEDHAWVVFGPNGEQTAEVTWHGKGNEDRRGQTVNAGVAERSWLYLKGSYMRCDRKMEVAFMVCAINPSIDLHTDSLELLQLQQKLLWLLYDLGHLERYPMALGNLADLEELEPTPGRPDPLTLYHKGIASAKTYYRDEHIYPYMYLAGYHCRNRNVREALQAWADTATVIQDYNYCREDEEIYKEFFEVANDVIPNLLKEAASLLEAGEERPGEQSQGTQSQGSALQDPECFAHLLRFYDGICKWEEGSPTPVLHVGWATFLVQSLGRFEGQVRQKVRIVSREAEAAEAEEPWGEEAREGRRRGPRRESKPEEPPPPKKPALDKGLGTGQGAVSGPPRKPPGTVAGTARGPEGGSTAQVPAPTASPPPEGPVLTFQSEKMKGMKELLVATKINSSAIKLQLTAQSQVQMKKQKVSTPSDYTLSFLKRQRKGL
BCR signal inh – inhibitors of chronic active B-cell receptor signaling; ABC-DLBCL IkBa-CBG/CBR reporter, luminescence ratio, 4 h; Potency, µM (titrated, usually from 46.1 µM), for inactives: at the highest dose ratio change, negative = lower green/red ratio, hits mostly inhibitors; 0.05% of 340,000 active; active = well fitted inhibition curve with a large enough effect in the signal ratio, with a control signal flat, not every such curve was filed as active; inconclusive = small, poorly fitted or top-dose-only effect, or effect the other way, or a change in a side signal; the % refers to the signal ratio;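 note: potency is the fitted concentration of half-maximal effect; plate controls were basal doxycycline-induced cells for no effect and cells given 10 µM MG132 for full effect; MG132 reads +100%, hits lower the ratio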
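TMD8 human ABC-DLBCL cells with doxycycline-inducible IκBα–green luciferase fusion and unfused red luciferase, in 0.5% FBS medium; compounds up to 46 uM, 4 h at 37C. Green/red luminescence ratio, filter-overlap corrected, fitted to concentration-response curves.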
TSHR antagonist – human thyrotropin receptor antagonism | P16473 | TSHR-expressing cells, TSH-stimulated cAMP HTRF, 2 h; active compounds read low | activity change, negative = inhibition, % at 11.5 µM | 0.2% of 330,000 active;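 active = activity change below a set negative limit, meaning inhibition stronger than a set level, cut at about -70% in these data; inconclusive = activity change between two set negative limits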; note: % is set by controls: 0 for no effect and ±100 for the full control effect
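Freshly harvested TSHR cells receive pin-tooled compound, then EC80 TSH at 4nM final. After 2 hours at 37 deg C, antibody in lysis buffer and cAMP-d2 are added; 30 minutes at ambient temperature precede the HTRF read.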
S-ASM inh – human S-ASM enzyme inhibition; P17405; placental ASM, HMU-PC fluorogenic substrate, 60 min; Potency, µM (titrated, usually from 57.5 µM), inactives show at the top dose activity change, negative = inhibition, most hits filed as inhibitors; 0.006% of 340,000 active; AID 504937; note: potency is the fitted concentration of half-maximal effect
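Human placenta-derived ASM preincubated with compound 10 min at room temperature, then reacted with 9 uM (final) fluorogenic HMU-PC substrate for 60 min at 37 C. Stop solution raises pH to 10; fluorescence read at Ex 386/Em 447 nm.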
Active calls of the source: *; ? = inconclusive; . = no result given; [ ] = remark or other dose. Unless noted, calls come from the whole dose curve; as a rule, active = well fitted curve in the direction sought with a large enough effect; inconclusive = small, poorly fitted or top-dose-only effect, or another doubt; inactive = no such curve, though single readings can be large; an effect the other way counts as inactive or inconclusive. This is a subset; count on the stated rates, not on these rows.

SMILES	USP2a block	GALK inhibitor	MBNL1-CUG inh	Eya2 phos inh	KCNH2 WT inh	Mito fusion yeast	Menin MLL FP TR	BCR signal inh	TSHR antagonist	S-ASM inh
O=C(CNC(=O)c1ccccc1)OCC(=O)c1ccccc1Cl	-1%	7%	-9%	6%	-2	4%	.	0%	47	3%
O=C(NNC1=C(C(=O)C(F)(F)F)CCC1)c1cccnc1	1%	-1%	3%	-4%	4	10%	5%	?	16	1%
O=C(/C=C/c1ccc2c(c1)OCO2)NCc1ccco1	1%	.	-1%	6%	29	-4%	2%	?	-5	11%
COc1cccc(-n2nnc3c(=O)n(CC(=O)Nc4ccc(C)cc4)cnc32)c1	10%	-3%	-3%	2%	-5	-1%	?	?	10	1%
Cc1cc(C)c(S(=O)(=O)/N=C2/C=C(SCC(=O)O)C(=O)c3ccccc32)cc1C	0%	0%	?	-9%	5	-7%	?	?	-11	?
COC(=O)c1cccc(NC(=S)Nc2cc(Cl)ccc2OC)c1	0%	0%	-13%	5%	-6	2%	?	?	-9	-3%
COc1ccc(-c2cc(C(=O)N/N=C/c3cccnc3)c3cc(C)cc(C)c3n2)cc1	-3%	-3%	-6%	-17%	7	-2%	43%[activator]	0%	-5	355%[activator]
Cc1cccc(C)c1NC(=O)N1CCC(n2c(=O)[nH]c3ccccc32)CC1	-1%	1%	-4%	13%	1	4%	-6%	-8%	0	5%
COc1ccccc1C1/C(=C(/O)c2ccc(C)cc2)C(=O)C(=O)N1CCN1CCOCC1 (stereo not drawn)	-6%	0%	2%	-3%	-2	-1%	0%	?	-6	-1%
CC1=CC(C)(C)N2C(=O)C3(NCCc4c3[nH]c3ccccc43)c3cc(C)cc1c32 (stereo not drawn)	8%	-1%	2%	3%	13	-11%	0%	?	19	-6%
Cc1ccc2nc(NC3=NCN(CCc4ccccc4)CN3)nc(C)c2c1	-1%	9%	-16%	21%	.	1%	-12%	-3%	-2	.
Cc1csc(N(C(=O)c2ccccc2F)c2ccccc2)n1	0%	7%	-1%	2%	-7	-4%	-11%	0%	-5	0%
Cc1cccc(C(C)C)c1NC(=O)COC(=O)COc1ccc2c(C)cc(=O)oc2c1	3%	-2%	-9%	6%	3	-1%	2%	-2%	15	28%
CCOC(=O)c1ccc(Nc2sc(C(=O)c3cccc([N+](=O)[O-])c3)c(N)c2C#N)cc1	7%	10%	-9%	-18%	4	4%	67%[activator]	-7%	-9	-3%
O=C(COC(=O)Cc1ccccc1F)Nc1ccc(F)cc1F	2%	-2%	1%	9%	-4	-3%	9%	0%	-7	-2%
Cc1cccc(OC(C)C(=O)N2CCCc3ccccc32)c1 (stereo not drawn)	2%	0%	-8%	-2%	-1	3%	?	1%	16	2%
CCN(CC(=O)NCc1ccc(Cl)cc1)CC(=O)NC1(C#N)CCCC1	1%	14%	-3%	-6%	0	5%	-24%	9%	7	33%
Cc1cc(C)cc(C(=O)Nc2cccnc2Cl)c1	-6%	0%	-1%	2%	-2	2%	2%	?	3	3%
COc1cccc2c(=O)n(CC(=O)Nc3ccc(F)cc3F)ccc12	1%	-3%	11%	-9%	-10	0%	4%	-22%	-4	2%
CCOc1ccc2nnc(-c3ccc(Br)cc3)n2n1	1%	0%	1%	5%	-8	-1%	-9%	?	10	1%
COC(=O)c1cc2nc(-c3ccc(C)cc3)cc(C(F)(F)F)n2n1	6%	-1%	-2%	3%	6	-3%	-3%	3%	1	77%[activator]
O=C(COC(=O)/C=C/c1ccc(Cl)cc1)Nc1ccc2c(c1)OCCO2	2%	-1%	1%	9%	-1	1%	-13%	12%	-5	0%
CC(c1ccccc1)n1c(N2CCN(C)CC2)nc2c1c(=O)[nH]c(=O)n2C (stereo not drawn)	0%	3%	1%	?	6	0%	3%	0%	15	1%
CCc1ccccc1NC(=O)C1CC(c2ccc(F)cc2)=NO1 (stereo not drawn)	-1%	1%	-7%	-6%	-3	-3%	-3%	?	-7	1%
COc1ccc(/C=C2/SC(=O)N(CCC(=O)Nc3ccc(C)cc3)C2=O)cc1OC	2%	1%	-2%	-19%	.	-12%	17%	-3%	-7	.

New compounds follow
SMILES	USP2a block	GALK inhibitor	MBNL1-CUG inh	Eya2 phos inh	KCNH2 WT inh	Mito fusion yeast	Menin MLL FP TR	BCR signal inh	TSHR antagonist	S-ASM inh
CCOc1cc(CO)cc(Br)c1OCC(N)=O	2%	-1%	-2%	2%	.	3%	5%	-2%	-3	-4%
CC1CCCC(C)N1CC(O)COCC1COc2ccccc2O1 (stereo not drawn)	0%	-1%	-10%	1%	6	0%	1%	2%	1	2%
COc1ccc(CNC(=O)C2CCC(=O)N(CC3CCCCC3)C2)cc1 (stereo not drawn)	3%	0%	-2%	-3%	7	1%	.	-10%	-14	1%
CCOc1ccc(NC(=O)C(CC(=O)O)Cc2ccc(C)cc2)cc1 (stereo not drawn)	1%	1%	-2%	-6%	-16	0%	-4%	9%	11	-2%
CC(C)(C)OC(=O)CC12CCCCC1NC(=O)O2 (stereo not drawn)	0%	.	-8%	-10%	2	2%	8%	-8%	1	3%
COc1ccc(C(=O)Nc2ccc(C(=O)N3CCCCC3C)cc2)c(OC)c1OC (stereo not drawn)	-2%	-6%	0%	7%	0	-1%	.	6%	20	3%
COc1ccc(-c2cn3ccccc3n2)cc1	2%	12%	-9%	4%	3	-15%	.	?	-10	6%
CCOC(=O)c1cccc(Nc2nc(-c3cccnc3)nc3ccccc23)c1	-1%	-2%	11%	9%	4	5%	34%[activator]	?	1	-7%
CCOC(=O)C1(Cc2ccccc2)CCCN(CCO)C1 (stereo not drawn)	0%	8%	8%	-1%	-7	2%	-7%	-7%	-8	-4%
O=C(NC(=S)Nc1cccc(S(=O)(=O)NC2=NCCC2)c1)c1cc(-c2ccco2)nc2ccccc12	-4%	.	11%	8%	12	-1%	.	?	-16	26%
Cc1c(Cl)cnc(NC(=O)COC(=O)c2nn(C)c(=O)c3ccccc23)c1Cl	4%	-1%	1%	3%	-5	-8%	-22%	5%	8	-6%
COc1cc(Cc2ccc(N)c(OC)c2)ccc1N	3%	.	-11%	-9%	1	2%	-1%	-1%	2	6%
CCN1CNC(=S)N(c2cccc(C)c2)C1	2%	2%	.	10%	3	-6%	.	-3%	-2	-2%
CCOc1cc(/C=C2/SC(=Nc3ccccc3)N(Cc3cccnc3)C2=O)ccc1OCC#N	1%	1%	6%	2%	4	-5%	-11%	-10%	-16	-11%
COC(=O)[C@H]1C[C@@H]1[C@H](NS(=O)(=O)c1ccc(-c2ccccc2)cc1)c1ccccc1	.	.	.	.	.	.	7%	.	.	.
Cc1cc(C(F)F)n2ncc(C(=O)NCc3ccccc3F)c2n1	-1%	1%	0%	-1%	0	-2%	-1%	-2%	0	1%
O=C(CN1CCN(c2ccc(O)cc2)CC1)NC(=O)NCc1ccco1	1%	3%	5%	-2%	-2	4%	-25%	-2%	-5	-1%

Record cards, as listed above. Order of screens: USP2a block	GALK inhibitor	MBNL1-CUG inh	Eya2 phos inh	KCNH2 WT inh	Mito fusion yeast	Menin MLL FP TR	BCR signal inh	TSHR antagonist	S-ASM inh
CCOC(=O)c1cccc(Nc2nc(-c3cccnc3)nc3ccccc23)c1 is listed with -1%	-2%	11%	9%	4	5%	34%[activator]	?	1	-7%
COC(=O)[C@H]1C[C@@H]1[C@H](NS(=O)(=O)c1ccc(-c2ccccc2)cc1)c1ccccc1 is listed with .	.	.	.	.	.	7%	.	.	.
COc1ccc(CNC(=O)C2CCC(=O)N(CC3CCCCC3)C2)cc1 (stereo not drawn) is listed with 3%	0%	-2%	-3%	7	1%	.	-10%	-14	1%
CC1CCCC(C)N1CC(O)COCC1COc2ccccc2O1 (stereo not drawn) is listed with 0%	-1%	-10%	1%	6	0%	1%	2%	1	2%

3 entries picked at random from those above:
SMILES	USP2a block	GALK inhibitor	MBNL1-CUG inh	Eya2 phos inh	KCNH2 WT inh	Mito fusion yeast	Menin MLL FP TR	BCR signal inh	TSHR antagonist	S-ASM inh
Cc1cccc(C)c1NC(=O)N1CCC(n2c(=O)[nH]c3ccccc32)CC1	-1%	1%	-4%	13%	1	4%	-6%	-8%	0	5%
COC(=O)[C@H]1C[C@@H]1[C@H](NS(=O)(=O)c1ccc(-c2ccccc2)cc1)c1ccccc1	.	.	.	.	.	.	7%	.	.	.
CCc1ccccc1NC(=O)C1CC(c2ccc(F)cc2)=NO1 (stereo not drawn)	-1%	1%	-7%	-6%	-3	-3%	-3%	?	-7	1%
